Ecoli rRNA inh – selective bacterial rRNA inhibition in E. coli | AID 720706 | 1.6% of 350,000 active | E. coli WT GFP vs humanized-ribosome RFP mutants, fluorescence, 24 h; hits give low values; DMSO median 0, no signal -100 | GFP signal change (wild-type ribosome), % (test concentration not listed);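 active means significant combined selectivity score with lowered wild-type GFP, culture density cut under 30%, mutant RFP and density less affected; inactive means any of these conditions unmet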; further: one replicate is shown; some compounds called inactive have numbers as strong as hits
Ecoli rRNA inh OD600 – second read-out of Ecoli rRNA inh, no call of its own (marks repeat the call); OD600 change, %; measured here: OD600 growth;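 optical density of the mix in the first replicate; 0 = DMSO median and -100 = no signal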
Ecoli rRNA inh RFP – further read-out of Ecoli rRNA inh, marked with its call; RFP signal change, %; measured here: RFP humanized mutant strains;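 first replicate; 0 = DMSO median and -100 = no signal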
Active calls of the source: *; & = joins results of further samples. A portion of the library; the hit share may differ from the screen's.

| Ecoli rRNA inh | Ecoli rRNA inh OD600 | Ecoli rRNA inh RFP | mol |
| --- | --- | --- | --- |
| 4 | 1 | -1.3 | CN(C)C(=O)[C@@H]1[C@@H](CO)[C@@H]2Cn3c(ccc(C4=CCCCC4)c3=O)[C@H]1N2Cc1ccncc1 |
| 5 | 8 | 3.3 | N#C[C@@H]1[C@@H](c2ccccc2-c2ccc(F)cc2)[C@H](CO)N1C(=O)Cc1cccnc1 |
| 5 | 11 | -1.9 | CCC(=O)N1[C@@H]2c3cccc(=O)n3C[C@@H]2[C@@H](CO)[C@@H]1C(=O)N[C@H](C)c1ccccc1 |
| -2 | -3 | 0.0 | CC=Cc1ccc2n(c1=O)C[C@H]1[C@H](CO)[C@@H](C(=O)N3CCN(C)CC3)N(Cc3ccccc3F)[C@@H]21 (mixture of isomers) |
| -56 | -60 | -1.9 | O=S(=O)(c1ccccc1)N1CCCCN2[C@@H](CO)[C@H](c3ccc(-c4ccccc4F)cc3)[C@@H]2C1 |
| -2 | -9 | 0.0 | C[C@@H]1CN([C@H](C)CO)C(=O)Cc2cc(NC(=O)CCN3CCOCC3)ccc2O[C@@H]1CN(C)Cc1ccc(Cl)c(Cl)c1 |
| -3 | 0 | 3.2 | N#C[C@@H]1N[C@H](CO)[C@@H]1c1ccc(-c2cccc(F)c2)cc1 |
| -17 | -22 | -2.9 | Cc1cc2c(nc1C)CCCN2S(=O)(=O)c1cccs1 |
| 2 | 2 | 1.5 | COCC(=O)N1CC(=O)N2[C@H](C1)[C@H](c1ccc(C#CC3CCCCC3)cc1)[C@@H]2CO |
| -2 | -1 | -1.0 | C[C@@H]1CN([C@H](C)CO)C(=O)c2cc(NC(=O)Cc3ccccc3)ccc2O[C@H]1CN(C)S(=O)(=O)c1cccs1 |
| -5 | -4 | -1.4 | O=C(Nc1ccccc1F)N[C@@H]1CC[C@@H](CCNS(=O)(=O)c2ccc(Cl)cc2)O[C@H]1CO |
| -3 | 5 | -4.6 | C[C@H](CO)N1C[C@H](C)[C@@H](CN(C)C(=O)C2CCOCC2)Oc2ncc(-c3cccc(F)c3)cc2C1=O |
| 7 | 8 | -0.8 | COc1cccc(-c2cnc3c(c2)C(=O)N([C@H](C)CO)C[C@H](C)[C@H](CN(C)CC2CCCC2)O3)c1 |
| -3 | 1 | 1.3 | C[C@@H]1CCCCO[C@@H](CN(C)C(=O)c2ccccc2)[C@H](C)CN([C@H](C)CO)C(=O)c2cc(NC(=O)c3ccncc3)ccc2O1 |
| -2 | 5 | 0.0 | C[C@H](CO)N1C[C@H](C)[C@@H](CN(C)C(=O)Nc2ccc(F)cc2)OCCCC[C@H](C)Oc2ccc(NC(=O)c3ccncc3)cc2C1=O |
| -6 | -15 | -4.9 | CCCC#Cc1ccc2c(c1)O[C@H](CN(C)C(=O)c1cccnc1)[C@H](C)CN([C@H](C)CO)S2(=O)=O |
| -1 | 3 | 1.7 | Cc1ccc(S(=O)(=O)N(C)C[C@@H]2Oc3ccc(NS(C)(=O)=O)cc3CC(=O)N([C@@H](C)CO)C[C@H]2C)cc1 |
| -1 | -7 | 6.9 | Cc1ccc(S(=O)(=O)Nc2ccc3c(c2)C(=O)N([C@@H](C)CO)C[C@H](C)[C@H](CN(C)C(=O)NC2CCCCC2)OCCCC[C@H](C)O3)cc1 |
| -3 | -8 | 1.8 | O=C(NC1CCCCC1)N1CC(=O)N2[C@@H](CO)[C@H](c3ccc(-c4ccccc4)cc3)[C@@H]2C1 |
| 0 | -5 | -0.2 | O=C(Nc1ccccc1Cl)N1C[C@@H]2[C@H](c3ccccc31)[C@@H](CO)N2C(=O)c1cccnc1 |
| 1 | -1 | -0.1 | C[C@H]1CN(C)C(=O)c2ccccc2O[C@@H]1CN(C)C |
| -51 | -56 | -13 | O=C(Nc1cccc(Cl)c1)N1C[C@@H]2[C@H](c3ccccc31)[C@@H](CO)N2C(=O)c1ccncc1 |
| 17 | 19 | 1.1 | COc1ccc(CN2C(=O)C(CC(=O)NC3CCCCC3)CC(C(=O)N3CCOCC3)=C2C)cc1 (stereo unspecified) |
| 2 | 4 | -0.3 | CNC[C@H]1Oc2ccc(NS(=O)(=O)c3ccc(OC)cc3)cc2C(=O)N([C@H](C)CO)C[C@@H]1C |
| 0 | 3 | 1.0 | COc1ccc(S(=O)(=O)Nc2ccc3c(c2)C(=O)N([C@H](C)CO)C[C@@H](C)[C@@H](CN(C)C(=O)Nc2ccccc2)O3)cc1 |
| -2 | -5 | -1.6 | O=C(N[C@@H]1CC[C@H](CCNS(=O)(=O)c2ccc(F)cc2)O[C@@H]1CO)C1CCCC1 |
| 1 | -1 | -2.5 | CO[C@@H]1CN(C)C(=O)c2ccc(NC(=O)c3ccccc3F)cc2OC[C@@H](C)N(C(C)=O)C[C@H]1C |
| 10 | 17 | 34 | CC(C)(C)S(=O)N1Cc2cc(C(=O)NCc3ccc(Oc4ccccc4)cc3)nc(-c3cccc(C#CCC4CCCC4)c3)c2[C@@H]1CCO (stereo partly specified) |
| 4 | 9 | 1.6 | CN1C(=O)c2cc(NC(=O)c3cnccn3)ccc2OC[C@@H]2O[C@@H](CC(=O)N[C@H]3CCN(Cc4ccccc4)C3)CC[C@H]21 |
| -4 | -9 | 1.4 | C[C@@H]1CN([C@H](C)CO)C(=O)Cc2cc(NC(=O)Nc3ccc(F)cc3)ccc2O[C@@H]1CN(C)Cc1ccc(C(=O)Nc2ccccc2N)cc1 |
| 2 | 0 | 3.2 | COc1ccc(S(=O)(=O)N(C)C[C@@H]2OCCCC[C@H](C)Oc3ccc(NC(=O)NC4CCCCC4)cc3C(=O)N([C@@H](C)CO)C[C@@H]2C)cc1 |
| 2 | -3 | 0.3 | C[C@@H]1CN([C@@H](C)CO)C(=O)c2cc(NC(=O)Cc3ccccc3)ccc2O[C@@H](C)CCCCO[C@H]1CN(C)S(=O)(=O)c1ccccc1 |

3 of the compounds above, with values under each structure.
Values in the order – Ecoli rRNA inh, Ecoli rRNA inh OD600, Ecoli rRNA inh RFP
C[C@H](CO)N1C[C@H](C)[C@@H](CN(C)C(=O)Nc2ccc(F)cc2)OCCCC[C@H](C)Oc2ccc(NC(=O)c3ccncc3)cc2C1=O
  -2, 5, 0.0
CCCC#Cc1ccc2c(c1)O[C@H](CN(C)C(=O)c1cccnc1)[C@H](C)CN([C@H](C)CO)S2(=O)=O
  -6, -15, -4.9
Cc1ccc(S(=O)(=O)N(C)C[C@@H]2Oc3ccc(NS(C)(=O)=O)cc3CC(=O)N([C@@H](C)CO)C[C@H]2C)cc1
  -1, 3, 1.7

Laid out differently: entries from further up.
Compound: CC(C)(C)S(=O)N1Cc2cc(C(=O)NCc3ccc(Oc4ccccc4)cc3)nc(-c3cccc(C#CCC4CCCC4)c3)c2[C@@H]1CCO (stereo partly specified)
  Ecoli rRNA inh: 10	Ecoli rRNA inh OD600: 17	Ecoli rRNA inh RFP: 34

Compound: COc1ccc(S(=O)(=O)N(C)C[C@@H]2OCCCC[C@H](C)Oc3ccc(NC(=O)NC4CCCCC4)cc3C(=O)N([C@@H](C)CO)C[C@@H]2C)cc1
  Ecoli rRNA inh: 2	Ecoli rRNA inh OD600: 0	Ecoli rRNA inh RFP: 3.2

Additional structures follow.
| Ecoli rRNA inh | Ecoli rRNA inh OD600 | Ecoli rRNA inh RFP | mol |
| --- | --- | --- | --- |
| -2 | 0 | -2.8 | O=C(c1cccnc1)N1CC[C@@H]2[C@@H](CO)Nc3ccc(-c4ccc(F)cc4)cc3[C@@H]21 |
| 0 | -19 | 6.2 | CCCc1cn(CC[C@@H]2CC[C@H](NS(=O)(=O)c3ccc(-c4ccccc4)cc3)[C@H](CO)O2)nn1 |
| -3 | -12 | -4.2 | C/C=C/c1ccc2c(c1)O[C@H](CN(C)Cc1ccc(C(=O)O)cc1)[C@@H](C)CN([C@H](C)CO)S2(=O)=O |
| 9 | 6 | 1.0 | C[C@H](O)[C@@H]1C(=O)N2CCc3c([nH]c4cccc(-c5ccccc5)c34)[C@@H]2C[C@@H]1N(C)C(=O)c1ccccc1 |
| 2 | -2 | 0.1 | COc1ccc2c3c([nH]c2c1)[C@@H](CO)N(C(=O)c1cccc(F)c1)CC31CCN(C(=O)CC2CC2)CC1 |
| 2 | -8 | 6.5 | O=C(Nc1cccc(F)c1)N1CC(=O)N2[C@@H](CO)[C@@H](c3ccc(C#CCC4CCCC4)cc3)[C@@H]2C1 |
| 1 | -16 | -0.8 | CC1(C(=O)Nc2cccc(OC(F)(F)F)c2)Cc2c(-c3ccc4c(c3)OCO4)ccnc2O1 (stereo unspecified) |
| -9 | -40 | 32 | COc1cc(CN2CC3(CCN(S(=O)(=O)c4cccc(F)c4)CC3)c3c([nH]c4cc(OC)ccc34)[C@H]2CO)cc(OC)c1 |
| 1 | 6 | -0.7 | C[C@H](CO)N1C[C@H](C)[C@@H](CN(C)Cc2cccnc2)Oc2ncc(C#Cc3cccnc3)cc2C1=O |
| 4 | 23 | 0.4 | CCOC(=O)c1c(C)[nH]c(C(=O)N(C)CC(=O)Nc2ccc(OCC)c(OCC)c2)c1C |
| 3 | 5 | -3.4 | Cc1cc2c(c(=O)o1)[C@@]1(C(=O)N(c3ccccc3)c3ccccc31)C1=C(CCCC1=O)O2 |
| 2 | 14 | 2.4 | C[C@H]1CN([C@@H](C)CO)C(=O)c2cc(-c3ccccc3F)cnc2O[C@H]1CN(C)Cc1ccccc1 |
| 4 | 9 | -1.9 | C/C=C/c1ccc([C@H]2[C@@H](CO)N(C(=O)Cc3cccnc3)[C@H]2CNC(C)=O)cc1 |
| -10 | -3 | -0.3 | C[C@H]1CN([C@@H](C)CO)C(=O)c2cc(-c3ccc(C#N)cc3)cnc2O[C@H]1CN(C)C(=O)Nc1ccc(F)cc1 |
| -4 | -1 | -2.3 | C[C@@H]1CN([C@@H](C)CO)C(=O)c2cccc(NC(=O)c3cnccn3)c2O[C@H]1CN(C)Cc1ccccc1 |
| 0 | -4 | 0.2 | C[C@@H]1CN([C@@H](C)CO)C(=O)c2cc(NS(=O)(=O)c3ccc(Cl)cc3)ccc2O[C@@H]1CN(C)Cc1ccc(Cl)c(Cl)c1 |
| 3 | 2 | -0.2 | O=C(C[C@H]1C=C[C@@H](NC(=O)Nc2cc(F)ccc2F)[C@H](CO)O1)NCc1ccncn1 |
| -34 | -44 | -9.7 | CC1(C(=O)NS(=O)(=O)c2ccc(Cl)s2)CCN1C(=O)C1(c2ccc(Cl)cc2)CCC1 (stereo unspecified) |
| -26 | -56 | 20 | OC(c1ccccc1)c1ncc(-c2ccc(C(F)(F)F)cc2)[nH]1 (stereo unspecified) |
| 1 | -2 | 0.9 | C[C@@H]1CN([C@H](C)CO)C(=O)c2cc(NC(=O)CCC(F)(F)F)ccc2O[C@@H](C)CCCCO[C@@H]1CN(C)S(=O)(=O)c1ccccc1 |
| -1 | 1 | 3.1 | CC(C)NC(=O)N(C)C[C@@H]1Oc2c(NC(=O)Nc3cccc4ccccc34)cccc2C(=O)N([C@H](C)CO)C[C@@H]1C |
| 3 | 10 | -0.2 | COc1ccccc1S(=O)(=O)Nc1ccc2c(c1)OC[C@@H](C)NC[C@@H](C)[C@@H](OC)CN(C)C2=O |
| -1 | 28 | -0.9 | Cn1cnc(S(=O)(=O)N2C[C@@H](O)COC[C@@H]3O[C@H](CC(=O)N4CCN(c5ccccc5)CC4)CC[C@H]32)c1 |
| 6 | -2 | 17 | C[C@H]1CN([C@@H](C)CO)S(=O)(=O)c2ccc(C#Cc3ccccc3)cc2O[C@H]1CN(C)S(C)(=O)=O |
| 2 | -1 | -3.2 | CC[C@@H]1CC=CC[C@@H](C)Oc2ccccc2C(=O)N(C)[C@@H](C)C(=O)N1 (mixture of isomers) |
| 1 | 5 | -3.0 | COc1ccc(S(=O)(=O)Nc2cccc3c2O[C@H](CN(C)C(=O)Nc2ccccc2)[C@@H](C)CN([C@@H](C)CO)C3=O)cc1 |
| 2 | 17 | -0.5 | CC(C)(C(=O)N1CCC1(C)C(=O)NS(=O)(=O)c1cccc(Cl)c1)c1ccccc1 (stereo unspecified) |
| 3 | -1 | -3.4 | COc1ccc(NC(=O)N(C)C[C@@H]2OCCCC[C@@H](C)Oc3ccc(NS(=O)(=O)c4ccc(OC)cc4)cc3C(=O)N([C@H](C)CO)C[C@@H]2C)cc1 |
| 8&3 | 13&11 | -1.4&-2.7 | C[C@@H]1CN([C@@H](C)CO)C(=O)c2cc(Br)cnc2O[C@@H]1CN(C)S(C)(=O)=O |
| -2 | -1 | 0.4 | C[C@H]1CN([C@@H](C)CO)C(=O)CCCn2cc(nn2)CO[C@H]1CN(C)Cc1cccc(C(F)(F)F)c1 |
| 6 | 1 | 0.4 | C[C@@H]1CN([C@H](C)CO)C(=O)Cc2cc(NC(=O)c3ccncc3)ccc2O[C@H]1CN(C)S(=O)(=O)c1cn(C)cn1 |
| -29 | -50 | -9.7 | O=C(C[C@@H]1C=C[C@H](NC(=O)Nc2cc(F)ccc2F)[C@H](CO)O1)Nc1ccc(-c2ccccc2)cc1 |
| -3 | -1 | 3.2 | C[C@H](CO)N1C[C@H](C)[C@@H](CN(C)C(=O)Cc2ccccc2)Oc2cc(C#CC3CCCC3)ccc2S1(=O)=O |
| -2 | -2 | -2.6 | C[C@@H]1CN([C@H](C)CO)C(=O)Cc2cc(NC(=O)c3ccncc3)ccc2O[C@@H]1CN(C)S(=O)(=O)c1ccc(F)cc1 |
| 0 | 3 | 0.4 | CCCC(=O)Nc1ccc2c(c1)C(=O)N(C)C[C@H](OC)[C@H](C)CN(Cc1ccccn1)[C@H](C)CO2 |
| 4 | 4 | 6.2 | C[C@@H]1CN([C@@H](C)CO)C(=O)c2cc(NS(=O)(=O)c3ccccc3)ccc2O[C@@H](C)CCCCO[C@H]1CN(C)C(=O)Nc1cccc2ccccc12 |
| 4 | 6 | -2.0 | O=C(Nc1ccc2c(c1)[C@H]1C[C@H](CC(=O)N3CCOCC3)O[C@@H](CO)[C@H]1O2)NC1CCCC1 |

Compound activity deposited in PubChem by Broad Institute.
